# HNF4A DNA FP: change in binding of human HNF4 alpha to DNA; P41235; HNF4a-FITC DNA binding, fluorescence polarization, 1 h; activity change, % at 10 µM; actives 0.3% (n = 360,000); AID 1224865; in the data active means activity change above about 30%, passing the limit was not always enough;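 further: controls were the assay level and a saturating level of protein; the project sought stronger binding though the title names inhibitors; some compounds called inactive have numbers as strong as hits; positive values seem to mean higher polarization but the record does not say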
# Target sequence (P41235 whole entry, looked up): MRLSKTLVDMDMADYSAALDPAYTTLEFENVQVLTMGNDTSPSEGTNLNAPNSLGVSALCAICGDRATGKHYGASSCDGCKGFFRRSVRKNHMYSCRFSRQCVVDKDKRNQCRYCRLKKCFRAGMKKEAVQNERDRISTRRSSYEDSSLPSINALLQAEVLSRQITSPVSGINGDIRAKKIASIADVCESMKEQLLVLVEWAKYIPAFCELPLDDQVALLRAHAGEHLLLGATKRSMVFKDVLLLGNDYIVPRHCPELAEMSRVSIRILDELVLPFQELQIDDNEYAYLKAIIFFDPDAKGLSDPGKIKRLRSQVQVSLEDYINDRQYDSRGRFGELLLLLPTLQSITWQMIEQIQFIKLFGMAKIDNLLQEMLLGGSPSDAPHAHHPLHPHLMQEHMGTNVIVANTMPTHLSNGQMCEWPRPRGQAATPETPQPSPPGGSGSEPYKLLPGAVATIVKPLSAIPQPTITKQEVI
# Numbers without * were called inactive. This is a subset; the hit share may differ from the screen's.
HNF4A DNA FP,smiles
-0.7,COC(=O)C[C@H]1CC[C@H](NC(=O)c2ccc(F)cc2)[C@@H](CO)O1
3.7,COc1cc(CNC(=O)Nc2nc(C(N)Cc3ccc(C(F)(F)F)cc3)cs2)cc(OC)c1OC (stereo not given)
7.2,CCc1nc2c(OCCOc3ccccc3)cccn2c1N(C)C(=O)c1ccc(C)cc1
-3.1,c1cc(-c2ccsc2)n2cnnc2c1
2.8,Cc1ccc(-c2nn(-c3ccccc3)cc2C(=O)Nc2cccc(S(=O)(=O)NC3=NCCC3)c2)cc1
-0.2,Cc1c(C(=O)NCCC#N)sc(=O)n1Cc1ccccc1F
-0.7,CC(C)C(N)c1csc(Nc2ccc(C(=O)c3ccccc3)cc2)n1 (stereo not given)
-1.9,COc1ccc(C(C)=O)cc1Cn1c(C)c(C(=O)NCCC#N)sc1=O
-7.6,CCOC(=O)[C@]12CCCC=C1N(CCC1=CCCCC1)C(=O)[C@H](CC(=O)N1CCCCC1)C2
-1.6,Cc1ccc(CNC(=O)Nc2nnc([C@H]3C[C@H](O)[C@@H](CO)O3)s2)cc1
-0.4,CC(C)(C)NC(=O)C1(C)CCC(=O)N1CC(F)(F)F (stereo not given)
13.4,O=C1NC[C@H](CC2CCCCC2)N(CCc2cccc3ccccc23)C1=O
9.7,COc1cccc(CNc2nc3cc(-c4ccc(OC)c(OC)c4)sc3c(=O)n2C)c1
-3.8,COc1ccc(C(C)(O)c2nc(-c3ccccc3C)cs2)cc1 (stereo not given)
0.0,Cc1cn([C@H]2C[C@H](O)[C@@H](CCC(=O)NCCc3ccc4ccccc4c3)O2)c(=O)[nH]c1=O
1.9,Cc1ccccc1-c1nc(NCC2CC2)nc2ccsc12
3.1,CN(C(=O)CN1CCN(c2cc(-c3cccc4oc5ccccc5c34)ncn2)CC1)c1ccccc1
1.2,O=C(OCC(O)C1OC(c2ccccc2)OC(COC(=O)c2ccccc2)C1O)c1ccccc1 (stereo not given)
1.8,COc1ccc(-c2[nH][nH]c(=O)c2NC(=O)c2ccc(C)cc2)cc1
7.2,O=C1C=CC(=NN=C(c2ccccc2)c2ccccc2)C=C1

# The listing continues.
HNF4A DNA FP,smiles
-2.0,CCC/C=C/c1ccc(CN2C(CC(C)C)C(=O)N(Cc3cn(CCC4OCCCO4)nn3)CCS2(=O)=O)cc1 (stereo not given)
2.0,CCC(CC)C(=O)N(C)c1c(C)nc2c(OCC3CCCCC3)cccn12
-1.7,CCc1nc2ccc(C(=O)N(C)Cc3ccco3)cn2c1N(CC)C(=O)NCCc1ccccc1
-0.8,CCOC(=O)C1=CCN(S(=O)(=O)c2ccccc2C)C1c1cccc(Br)c1 (stereo not given)
-1.7,CCCc1nc2ccc(Br)cn2c1Cc1ccccc1
-1.3,CCCNC(=O)C1(C)CCCN(C(=O)c2ccc3ccccc3c2)C1 (stereo not given)
5.0,CCc1c(-c2ccccc2F)ncn1Cc1cccc(-c2ccccc2)c1
-3.0,CC(O)(c1cccc(F)c1)c1nc(-c2cccc3cccnc23)cs1 (stereo not given)
1.2,CCOC(=O)[C@]12CCC=C1N(Cc1ccccc1)C(=O)[C@H](CC(=O)N1CCN(C(=O)c3ccco3)CC1)C2
-7.4,O=C1NC[C@H](Cc2ccc(O)cc2)N(C[C@@H]2CCCN2C[C@H](Cc2ccc(O)cc2)N2C[C@H](Cc3ccccc3)N(CC3CCCCCC3)C(=O)C2=O)C1=O
-2.3,CCCNC(=O)c1cc(C2CCCCN2S(=O)(=O)c2cn(C)cn2)on1 (stereo not given)
12.2,FC(F)C(F)(F)Oc1cccc(Nc2nccn3c(-c4cccc5ccccc45)cnc23)c1
-3.1,CC(=O)Nc1cccc(-c2csc(C(NC(C)=O)c3ccc(F)c(F)c3)n2)c1 (stereo not given)
-1.6,O=C(Nc1ccc(N2CCOCC2)cc1)c1csc([C@H]2C[C@H](O)[C@@H](CO)O2)n1
2.0,CCOC(=O)[C@]12CCC=C1N(Cc1ccc(Cl)cc1Cl)C(=O)[C@H](CC(=O)NCc1ccccc1)C2
4.0,COc1ccc(C(N)c2csc(Nc3nncc4ccccc34)n2)cc1 (stereo not given)
2.9,Cc1nc(NC(=O)C(C)(C)C)sc1C(=O)Cn1cc(CCc2ccccc2)nn1
-2.0,CCOc1ccc(C(CN2CCOCC2)C(C)=O)cc1OC (stereo not given)
1.9,COc1cc(C(C)=O)ccc1OCC(=O)N1CCC(Cc2ccccc2)CC1
-1.6,CC(C)C[C@H]1CN([C@@H](CC(C)C)CN2CCC[C@@H]2CN2C(=S)NC[C@@H]2Cc2ccc(O)cc2)C(=S)N1CC1CCCCC1

# Following part:
HNF4A DNA FP,smiles
-6.8,CCOC(=O)C1=CCN(S(=O)(=O)c2ccccc2)C1c1ccc(C)cc1 (stereo not given)
3.0,CCCn1cnnc1CNC(=O)[C@H]1O[C@@H](n2ccc(N)nc2=O)[C@H](O)[C@@H]1O
-3.2,CC(C)(C)N1C(=O)c2ccccc2NC(=O)C1C(=O)NCc1ccco1 (stereo not given)
2.1,Cc1onc(-c2ccccc2)c1C(=O)OCC(=O)c1ccc[nH]1
0.7,CC1(C(=O)NS(=O)(=O)c2ccc(Cl)s2)CCN1C(=O)c1ccccc1CCc1ccccc1 (stereo not given)
-8.9,C[C@H]1CN([C@@H](C)CO)C(=O)CCCn2nncc2CO[C@H]1CN(C)C(=O)CCC(F)(F)F
-1.6,CCc1nc2c(OCc3ccc(Cl)cc3)cccn2c1N(C)C(=O)c1ccc2c(c1)OCO2
2.8,CC1(Oc2cccc(F)c2)CCN(Cc2ccccc2OC(F)F)C1 (stereo not given)
-1.6,O=C1NC[C@H](CCCCN2C[C@H](Cc3ccccc3)N(CCc3ccccc3)C(=O)C2=O)N(CCC2CCCCC2)C1=O
-1.9,COc1cc(NC(=O)CC[C@H]2O[C@@H](n3cnc4c(NC(=O)c5ccccc5)ncnc43)[C@H](O)[C@@H]2O)cc(OC)c1OC
-2.8,Cc1cccc(C)c1NC(=O)C(c1ccccc1F)n1c(=O)c(-c2ccccc2)nc2ccccc21 (stereo not given)
-1.9,Cn1c(=O)c2cc(NC(=S)NC3CCCCC3)ccc2n1Cc1ccc(F)cc1
3.5,COc1ccccc1-c1ccc2c(c1)C(C)(Cc1ccc(Cl)cc1)C(=O)N2 (stereo not given)
-1.9,CNC(=O)C[C@@H]1C(=O)N(C2CCCCC2)CC1(C)C
-0.9,CCc1nc2c(OCCC3CCCCC3)cccn2c1N(C)C(=O)C1CC1
-2.3,CCc1nc2ccc(C(=O)NCCOc3ccc(OC)cc3)cn2c1N(C)C(=O)C1CCCCC1
2.0,CCC(CO)Nc1ccn2nc(-c3cccs3)cc2n1 (stereo not given)
-4.0,CCCNC(=O)C1(C)CCCN(C(=O)c2ccc3sccc3c2)C1 (stereo not given)
0.7,COc1cc(CN2C[C@@H](CO)O[C@@H](n3cnc4c(NCCN(C)C)ncnc43)C2)cc(OC)c1OC
3.3,Cc1ccsc1C(=O)N1CCC1(C)C(=O)NS(=O)(=O)c1ccccc1 (stereo not given)

# Next part:
HNF4A DNA FP,smiles
-0.7,Cc1cccc(C)c1NC(=O)C(c1ccccc1)n1c(=O)c(-c2ccccc2)nc2ccccc21 (stereo not given)
1.6,O=C1CCC2c3[nH]c4ccccc4c3CCN12 (stereo not given)
1.8,CC(O)(c1ccc(F)c(F)c1)c1nc(-c2ccc(S(C)(=O)=O)cc2)cs1 (stereo not given)
0.2,O=C(NCC(F)(F)F)C1C(=O)Nc2ccccc2C(=O)N1C1CCCC1 (stereo not given)
-0.8,CCCC(C)(C)C(=O)N1CCC1(C)C(=O)NS(=O)(=O)c1ccccc1Cl (stereo not given)
-7.0,Cc1ccccc1-c1cnc(C(O)c2ccc(Cl)c(F)c2)[nH]1 (stereo not given)
-3.4,Clc1cccc(CNc2ccn3nc(-c4cccs4)cc3n2)c1
0.4,COc1ccccc1N1CCN(CCC(=O)Nc2cccc(F)c2)CC1
3.8,CCCNC(=O)C1(C)CCCN(C(=O)c2cc3ccccc3s2)C1 (stereo not given)
12.1,COc1ccc(Cc2c(C(C)(C)C)nc3ccc(Cl)cn23)c(C)c1
0.5,COc1ccc(OC)c(-c2nn(-c3ccccc3)cc2C(=O)NC2(C)CCS(=O)(=O)C2)c1 (stereo not given)
-2.5,CC1(C(=O)NCc2cccc(C(F)(F)F)c2)CCN1Cc1ccc(-c2ccccc2)o1 (stereo not given)
-9.8,COc1ccc(-c2cc3c(c4c2ccn4C)C2CCC3C2)cn1 (stereo not given)
3.0,N#Cc1cccc(C(=O)C(=O)N2CCC(c3ccccc3)CC2)c1
1.9,CCOC(=O)C1=CCN(S(=O)(=O)c2ccc(F)cc2)C1c1ccc(C)cc1 (stereo not given)
-1.9,Cn1c(NCc2cccnc2)nc2cc(-c3ccc(F)cc3)sc2c1=O
2.0,COC(=O)[C@@]12C[C@@H](CC(=O)N3CCCCC3)C(=O)N(Cc3ccc4c(c3)OCO4)C1=CCC(C)(C)C2
-1.5,CCc1nc2ccc(C(=O)N3CCN(C(=O)c4ccco4)CC3)cn2c1N(C)Cc1ccc(OC)cc1
7.7,CCCCNC(=O)C[C@@H]1C[C@@]2(C(=O)OC)CCCCC=C2N(Cc2ccccc2)C1=O
2.5,Cn1c(OCC2CCCO2)nc2cc(-c3ccccc3)sc2c1=O (stereo not given)

# (listing goes on)
HNF4A DNA FP,smiles
0.3,COc1ccc(-c2csc(C(C)(O)c3ccc(F)c(F)c3)n2)cn1 (stereo not given)
-1.4,CC1(c2nnnn2Cc2ccccc2)CCC(=O)N1CCCN1CCOCC1 (stereo not given)
0.2,CC1=C(C(=O)N2CCCCCC2)CC(CC(=O)NCCCCc2ccccc2)C(=O)N1CCC1=CCCCC1 (stereo not given)
-9.9,O=C(NCc1ccco1)c1ccc(-c2ccc3nccn3c2)cc1
2.2,CC(C)C[C@H]1CNC(=O)C(=O)N1C[C@@H]1CCCN1C[C@H](CC(C)C)N1C[C@H](Cc2ccc(O)cc2)N(CCc2ccccc2)C(=O)C1=O
-0.7,CCCS(=O)(=O)NC(=O)C1(C)CCN(C(=O)c2cncc(Br)c2)C1 (stereo not given)
6.8,CCc1nc2c(OCc3cc(Cl)cc(Cl)c3)cccn2c1N(C)C(=O)Nc1ccccc1OC
0.0,CCCc1cc(=O)oc2c3c(cc(OCC(=O)N4CCC(C(=O)O)CC4)c12)OC(C)(C)CC3
4.5,COC(=O)[C@]12CCCCC=C1N(Cc1ccco1)C(=O)[C@H](CC(=O)NCc1ccc(C)o1)C2
4.1,C[C@@H](CO)NC(=O)[C@H]1O[C@@H](n2cnc3c(N)ncnc32)[C@H](O)[C@@H]1O
7.8,Clc1cccc(-c2cccc3nccn23)c1Cl
1.4,O=C(NCc1ccccc1)c1ccc([N+](=O)[O-])cc1
0.2,Cc1nc2c(OCc3ccc(C#N)cc3)cccn2c1N(C)Cc1cccs1
-2.4,Cc1cccc(C)c1NC(=O)C(c1ccccc1)N1CCN(c2ccc(C(F)(F)F)cn2)CC1 (stereo not given)
-1.5,COc1cc(CNc2ncnc3c2ncn3[C@H]2CN(Cc3ccc(C(=O)O)cc3)C[C@@H](CO)O2)cc(OC)c1OC
4.3,Cc1ccc(Cn2c(C)c(C(=O)NCc3cccc(C(F)(F)F)c3)sc2=O)cc1
1.4,COc1ccc(C(N)c2csc(Nc3cc(Oc4ccccc4)ncn3)n2)cc1 (stereo not given)
3.8,C=CCOc1cccn2c(N(C=O)Cc3ccccc3)c(CC)nc12
-0.5,CCc1nc2c(OCc3ccccc3)cccn2c1N(C)C(=O)COc1ccccc1
2.4,COCCNC(=O)C1(C)CCN(C(=O)c2ccc(C(F)(F)F)nc2C)C1 (stereo not given)

# Structures shown so far that contain a COOH group (2):
HNF4A DNA FP,smiles
0.0,CCCc1cc(=O)oc2c3c(cc(OCC(=O)N4CCC(C(=O)O)CC4)c12)OC(C)(C)CC3
-1.5,COc1cc(CNc2ncnc3c2ncn3[C@H]2CN(Cc3ccc(C(=O)O)cc3)C[C@@H](CO)O2)cc(OC)c1OC

# Grouped by structure: those above containing bromine
HNF4A DNA FP,smiles
-0.8,CCOC(=O)C1=CCN(S(=O)(=O)c2ccccc2C)C1c1cccc(Br)c1 (stereo not given)
-1.7,CCCc1nc2ccc(Br)cn2c1Cc1ccccc1
-0.7,CCCS(=O)(=O)NC(=O)C1(C)CCN(C(=O)c2cncc(Br)c2)C1 (stereo not given)

# Continuation:
HNF4A DNA FP,smiles
2.0,C[C@@H]1COc2cc(N3CC[C@H](O)C3)ccc2S(=O)(=O)N1
1.7,CCCNC(=O)c1cc(C2CCCN(C(=O)c3ccc(OC)cc3)C2)on1 (stereo not given)
21.5,Clc1cccc(-c2nc3ccc(Br)cn3c2Cc2ccccc2)c1
-0.3,CN(c1ccccc1)S(=O)(=O)c1cccc(C(=O)NCC(c2cccs2)N2CCOCC2)c1 (stereo not given)
-1.8,CCc1nc2ccc(C(=O)Nc3cccc(NS(C)(=O)=O)c3)cn2c1N(C)CCCc1ccccc1
8.6,OC(c1ccc(Cl)cc1)c1ncc(-c2cccc(F)c2)[nH]1 (stereo not given)
0.6,COc1ccc(CN2C[C@@H](CO)O[C@@H](n3cnc4c(NC5CCC5)ncnc43)C2)cc1
3.5,COc1ccc2cc(C3CC=C(CO)CN3S(=O)(=O)c3ccccc3[N+](=O)[O-])n(C(=O)OC(C)(C)C)c2c1 (stereo not given)
-4.6,CCCc1nc2ccc(Br)cn2c1Cc1ccccc1OC
-3.2,COc1ccc(CNC(=O)/C=C/[C@H]2O[C@@H](n3cc(C)c(=O)[nH]c3=O)C[C@@H]2O)cc1

# Seven compounds from above, arranged by SMILES length, descending.
HNF4A DNA FP,smiles
3.5,COc1ccc2cc(C3CC=C(CO)CN3S(=O)(=O)c3ccccc3[N+](=O)[O-])n(C(=O)OC(C)(C)C)c2c1 (stereo not given)
-3.2,COc1ccc(CNC(=O)/C=C/[C@H]2O[C@@H](n3cc(C)c(=O)[nH]c3=O)C[C@@H]2O)cc1
0.6,COc1ccc(CN2C[C@@H](CO)O[C@@H](n3cnc4c(NC5CCC5)ncnc43)C2)cc1
2.0,C[C@@H]1COc2cc(N3CC[C@H](O)C3)ccc2S(=O)(=O)N1
8.6,OC(c1ccc(Cl)cc1)c1ncc(-c2cccc(F)c2)[nH]1 (stereo not given)
21.5,Clc1cccc(-c2nc3ccc(Br)cn3c2Cc2ccccc2)c1
-4.6,CCCc1nc2ccc(Br)cn2c1Cc1ccccc1OC
